# Screening results from PubChem.
# GIV-Gai inh = GIV-Galpha-i interaction inhibition | P08753 | Galpha-i3/FITC-GIV peptide fluorescence polarization, 90 min; stronger effect = lower value; scaled: aluminum fluoride 0%, vehicle 100% | percent of control (FP), % (test concentration not listed) | 0.42% of 210,000 active | AID 1224905;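 active = replicate mean at 85% of control or lower, very high polarization wells dropped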;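 also: wells of about 15 µL received 100 nL stock; the first replicate is given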
# Target sequence (P08753 whole entry, looked up): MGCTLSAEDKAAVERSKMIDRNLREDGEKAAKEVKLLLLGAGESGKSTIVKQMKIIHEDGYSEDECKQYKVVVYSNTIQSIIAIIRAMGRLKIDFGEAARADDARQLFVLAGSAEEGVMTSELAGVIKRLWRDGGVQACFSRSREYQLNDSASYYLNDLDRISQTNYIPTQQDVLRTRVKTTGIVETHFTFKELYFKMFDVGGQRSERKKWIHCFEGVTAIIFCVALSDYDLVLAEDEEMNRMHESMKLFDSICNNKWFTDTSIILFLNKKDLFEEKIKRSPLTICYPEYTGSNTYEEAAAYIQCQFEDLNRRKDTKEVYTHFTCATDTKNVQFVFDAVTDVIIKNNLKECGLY
# HCMV NEC inh = inhibitors of HCMV UL50-UL53 nuclear egress complex interaction | 0.15% of 190,000 active | HTRF UL50-UL53 interaction, normalized percent inhibition | AID 1918969 | inhibition, % (concentration not given with the values);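 active = both replicates at 50% or more, plus weaker picks with an unusually low signal ratio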;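 also: stock transfer was 100 nL into about 20 µL; 0% = negative control wells and 100% = wells with untagged competitor protein; inactives centre near -12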
# Sa growth inh = inhibitors of Staphylococcus aureus growth at 42 °C | S. aureus RN4220 growth, OD600, 20 h; stronger effect = lower value | relative growth, % (no concentration beside the values) | 0.53% of 170,000 active;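 active = growth at 42 °C up to 50% and 20 or more points under that at 30 °C, or under 10% at both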;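 also: 300 nL library stock went into each well; scaled to the means of positive and negative controls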
# Sa growth inh second temp = further read-out of Sa growth inh, marked with its call; relative growth, %; measured here: growth at 30 °C;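 optical density after 20 h as mean of two plates; 100% = untreated growth and lower means inhibition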
# * hit, by the source's call; . = not tested or not shown; & = joins results of further samples.
SMILES,GIV-Gai inh,HCMV NEC inh,Sa growth inh,Sa growth inh second temp
CN(C)c1ccc(C(=O)Nc2ccc(CN3CCS(=O)(=O)CC3)cc2)cc1,110,1,102,94
CNC(=O)CN1C(=O)c2cccnc2Oc2ccc(Cl)cc21,96,.,104,86
O=C(Nc1nnc2n1CCS2)c1cc(C(F)(F)F)cc(C(F)(F)F)c1,100,.,103,72
CCOC(=O)C(C)Sc1nc(-c2ccccc2)ccc1C#N (stereo unspecified),103&107,-24&-19,85&101,88&78
O=C(CCSc1nnnn1-c1ccccc1)Nc1ccc(Cl)cc1,103,-10,104,80
Cc1nn(-c2ccccc2)c2c1N(CCCC(=O)NCc1ccc(Cl)cc1)C(=O)CS2,102,.,91,90
CC(C)CC(=O)Nc1nnc(S(=O)(=O)N2CCc3ccccc32)s1,102,-16,108,89
CCc1cc(N2CCN(C(C)=O)CC2)n2c(nc3ccccc32)c1C#N,.,-19,84,94
CCc1ccccc1N(C)C(=O)c1cc2c(Cl)nc3ccc(C)cc3c2s1,107,-14,103,86
CN(C)C(CNC(=S)Nc1ccccc1Cl)c1ccco1 (stereo unspecified),.,-17,110,92
Nc1c([Se]c2ccccc2)cc([Se]c2ccccc2)c2c1C(=O)c1ccccc1C2=O,108,5,.,.
CCCc1nc2nc(C)c(CC(=O)Nc3ccc(Br)cc3)c(C)n2n1,102,1,.,.
COC(=O)c1ccccc1NC(=O)c1noc2c1CCc1ccccc1-2,102,-38,85,86
CCc1oc2ccccc2c1CC1C(=O)Nc2ccc(Cl)cc21 (stereo unspecified),106,-5,.,.
COc1cccc(C2NC(=O)NC(C)=C2C(=O)OCc2ccc3c(c2)OCO3)c1OC (stereo unspecified),104,-12,.,.
CCCOC(=O)c1ccc(-c2n[nH]c(=O)c3ccccc23)cc1,102,-30,.,.
C=CCn1c(SCC(=O)c2ccc(CNC(C)=O)s2)nnc1C1CCCCC1,.,-46,102,95
Cc1c(C)n(Cc2ccccc2)c2ccc(C(=O)N3CCN(Cc4ccccc4)CC3)cc12,104,1,.,.
O=C(Nc1ccc(Br)cc1F)c1nc2ccccc2nc1N1CCCC1,118,-2,.,.
COc1cc(OC)cc(-c2nc3ccccc3c(=O)n2OC(=O)C2CCC(C(C)(C)C)CC2)c1 (stereo unspecified),94,-21,.,.
O=C(Nc1ccccc1OCc1cc(=O)n2ccccc2n1)Nc1ccccc1C(F)(F)F,103,.,101,81
COc1cc(C(=O)Nc2ccc(OCc3cc(=O)n4ccc(C)cc4n3)cc2)cc(OC)c1OC,100,.,106,101
CC(Sc1nnc(CNC(=O)c2ccccc2F)n1C(C)C)C(=O)Nc1nccs1 (stereo unspecified),105,.,84,77
FC(F)(F)c1cc(-c2cccc3ccccc23)n[nH]1,107,-2,32,23
COCCCNC(=O)c1cc(-c2ccc(OC)cc2)nc2n[nH]c(-c3ccc(Cl)cc3)c12,96,.,79,88
CCn1c(C)c(C)c2cc(C(=O)NCc3ccc(N(C)C)cc3)ccc21,113,.,96,106
Cc1nn(-c2ccccc2)c(C)c1N=Cc1c(O)ccc2ccccc12,.,3,98,87
NC(=O)C1CCCN(C(=S)NC2CCCCC2)C1 (stereo unspecified),.,-8,94,85
Cc1ccc(-n2nc(C)c3c(C(=O)NCc4ccc(F)cc4)cc(C)nc32)cc1,103,.,95,82
COc1cc(OC)cc(-c2nc(N)n[nH]2)c1,103,4,100,98
CC(Sc1nc2cc(Cl)ccc2n1Cc1ccccc1)C(=O)NC(N)=O (stereo unspecified),.,-26,100,96
O=C(CCCc1nc(-c2ccc(Cl)cc2)no1)Nc1nn[nH]n1,105,-6,.,.
COc1ccc(OC(C)C(=O)Nc2ccc3c(c2)OCO3)cc1 (stereo unspecified),102,-17,98,65
CC(=O)C(C)=O,105,-29,.,.
CCCN1C(=O)C(Cc2nc3ccccc3c(=O)n2-c2cccc(C)c2)c2ccccc21 (stereo unspecified),100,-43,100,80
Oc1ccc(Br)cc1C=Nc1cccc2nsnc12,101,.,92,43
Cc1cccc(-n2ncc(C(=O)NCc3ccco3)c2C2CCN(C(=O)OC(C)(C)C)CC2)c1,105,.,97,97
Cc1cccc(N2CCN(C(=O)C3CCN(S(=O)(=O)c4c(C)noc4/C=C/c4ccccc4F)CC3)CC2C)c1 (stereo unspecified),103,.,106,101
CCOc1ccc(CCNC(=O)c2cnc3sc(N4CCCC4)nn3c2=O)cc1,98,.,88,89
Cc1nc(-c2ccccc2)sc1-c1ccc(SCc2ccccc2)nn1,105,-13,.,.
Cc1c2cnn(-c3ccccc3)c(=O)c2c(C)n1CCCC(=O)N1CCc2ccccc2C1,103,2,94,79
O=C(Nc1cccc(C(F)(F)F)c1)NC1CC(=O)N(Cc2ccccc2)C1 (stereo unspecified),102,.,91,63
O=C(CNc1ccc(S(=O)(=O)N2CCCC2)cc1)N1CCc2ccccc21,.,-7,97,95
COc1ccccc1OCC(O)Cn1cnc2ccccc21 (stereo unspecified),113,-28,.,.
Cc1ccccc1CNC(=O)CN(c1cccc(C)c1C)S(C)(=O)=O,109,.,114,106
O=C(O)/C=C/c1c[nH]c(=O)[nH]c1=O,95,-33,101,108
Cc1cc(C)n(-c2nc3cc(Cl)ccc3nc2N2CCN(c3ccccc3F)CC2)n1,104,.,110,91
COc1cccc(Nc2nnc(SCC(C)C)s2)c1,.,-10,74,89

# An excerpt from above, reduced to GIV-Gai inh:
compound	GIV-Gai inh
Cc1c2cnn(-c3ccccc3)c(=O)c2c(C)n1CCCC(=O)N1CCc2ccccc2C1	103
O=C(Nc1cccc(C(F)(F)F)c1)NC1CC(=O)N(Cc2ccccc2)C1 (stereo unspecified)	102

# The list goes on:
SMILES,GIV-Gai inh,HCMV NEC inh,Sa growth inh,Sa growth inh second temp
CCOC(=O)C1CCN(c2cc(Nc3ccccc3C(=O)O)c3c4c(onc24)-c2ccccc2C3=O)CC1,271,-188,75,42
COc1ccc(OC)c(C(=O)CC2(O)C(=O)N(Cc3ccccc3C)c3ccccc32)c1 (stereo unspecified),98,9,117,103
CCn1c(=NC(=O)c2ccco2)sc2cc(Cl)ccc21,106,-10,106,80
CC1=NN(c2ccccc2)C(=O)C12CC(C)=C(C)CS2 (stereo unspecified),.,-17,98,79
O=C1CC(c2ccccc2)Oc2ccc(Cl)cc21 (stereo unspecified),99,-39,62,69
O=S1(=O)N=C(N2CCN(c3ccccc3)CC2)c2ccccc21,104,-17,95,83
Cn1c(C(=O)O)c(CNCc2ccccc2)c2ccccc21,108,-16,97,85
Cc1ccc2c(c1)c1nc3ccccc3nc1n2CC(C)C,99,-21,101,79
CCNC(=O)c1cnc2sc3c(n2c1=O)CCCC3,106,-6,.,.
CCOc1ccccc1NC(=O)Cn1c(=O)oc2ccccc21,101,.,109,81
Cc1ccc(C(C)C)c(OCC(=O)Nc2cc(-c3nc4ccccc4[nH]3)ccc2C)c1,107,5,119,86
C=CCn1c(=S)[nH]c2sc3c(c2c1=O)CCCC3,.,-14,60,25
O=C1NC(=O)N(c2ccc(Cl)cc2)C(=O)/C1=C/c1ccc(O)c(Br)c1,116,-3,.,.
CCCS(=O)(=O)Cc1nnc(-c2cccs2)o1,106,5,107,96
O=c1cc(-c2ccccc2)ss1,106,.,81,78
CN1CCN(C(CNS(C)(=O)=O)c2ccc(N(C)C)cc2)CC1 (stereo unspecified),102,5,.,.
Cc1noc(C)c1CSc1nc2cc(C(=O)O)ccc2c(=O)n1Cc1ccccc1,.,1,100,90
N#Cc1ccc(OCC(F)(F)F)c(C#N)c1OCC(F)(F)F,105,-18,92,90
CSc1ccccc1C(=O)OCC(=O)Nc1ccc(S(N)(=O)=O)cc1,.,-11,106,108
Nc1ccc2nc(-c3ccccc3-c3nc4ccc(N)cc4[nH]3)[nH]c2c1,104,.,91,99
O=c1c2c3c(sc2nc2sc(-c4ccncc4)nn12)CCCC3,.,-7,95,100
Cc1ccc(CNC(=O)c2cc(=O)[nH]c3ccccc23)n1C,.,-14,106,83
CC(C)=C(/C(C)=N/O)c1ccc(N(C)C)cc1,96,-5,98,99
Cc1cc(=O)n2[nH]cc(-c3ccccc3)c2n1,101,-24,66,44
CS(=O)(=O)N1CCCc2cc(C(=O)N3CCN(Cc4ccccc4)CC3)ccc21,105,-1,112,90
O=C(O)c1ccccc1SCc1cc(=O)n2nc(-c3ccco3)sc2n1,109,1,86,69
Cc1cc(C)cc(N2CC(c3nnc(NC(=O)c4c(-c5ccccc5)noc4C)s3)CC2=O)c1 (stereo unspecified),101,-20,.,.
O=C(NCC1CCCCC1)C1CCCN1C(=O)NC1CCCCC1 (stereo unspecified),99,-23,92,78
CCc1ccc(OCC(=O)Nc2cc(-c3ccc(C)cc3)no2)cc1,100,-14,98,91
c1ccc(C2=Nc3ccccc3SC2c2nc3ccccc3[nH]2)cc1 (stereo unspecified),110,.,85,73
CC(CC(=O)O)CC(=O)N1CC(C)OC(C)C1 (stereo unspecified),109,6,104,105
CC(=O)c1ccc(N2CCN(S(=O)(=O)c3ccc(-c4cc(C(F)(F)F)on4)s3)CC2)cc1,99,.,96,87
CCC(C)n1c(=N)c(S(=O)(=O)c2ccc(C)cc2)cc2c(=O)n3cc(C)ccc3nc21 (stereo unspecified),102,0,100,97
CN1CCc2c(sc3[nH]c(=S)n(CCc4ccccc4)c(=O)c23)C1,102,-9,.,.
CC(C)C(NS(=O)(=O)c1ccc2c(c1)CCCC(=O)N2)C(=O)N1CCN(c2ccccc2)CC1 (stereo unspecified),101,-29,111,81
CC1COc2c(N3CCN(C)CC3)c(F)cc3c(=O)c(C(=O)OCc4ccccn4)cn1c23 (stereo unspecified),.,-18,-1.0*,-0.7*
Cn1cnnc1Sc1nc2c(c(=O)n(C)c(=O)n2C)n1Cc1ccc(F)cc1,93,-7,.,.
Cc1c(CC(=O)NN)sc2ccc(Cl)cc12,101,24,114,102
O=C(NC1CCCC1)c1cc(NS(=O)(=O)c2ccc(F)cc2)ccn1,101,-38,101,95
Cc1csc(N(C(=O)CSc2nnc(C)n2-c2ccccc2)c2ccccc2)n1,.,10,115,98
COC(=O)C1=C(C)Nc2nnnn2C1c1ccc(N(C)C)cc1 (stereo unspecified),100,-15,.,.
O=C1c2ccccc2S(=O)(=O)N1CC1CC1,98,29,97,82
CCc1nn(CC(=O)NC2CCCC(C)C2C)c(=O)c2cc3sc(C)cc3n12 (stereo unspecified),103,-14,108,84
Cc1ccc(-c2[nH]c3ccccc3c2SCCNC(=O)c2ccncc2)cc1,103,.,93,53
COc1ccc(/C=C2/SC(=O)N(CNc3ccc(OC)c(Cl)c3)C2=O)cc1,103,-15,.,.
Cc1c(C(=O)N(Cc2ccc(N(C)C)cc2)CC2CCCO2)oc2cc(Br)ccc12 (stereo unspecified),107,-11,.,.
O=C(OCc1ccc(F)cc1)C1=NN(c2ccccc2)C(=O)CC1,.,-31,94,84

# Of the compounds above, 14 have an NH in an aromatic ring:
SMILES,GIV-Gai inh,HCMV NEC inh,Sa growth inh,Sa growth inh second temp
CCCOC(=O)c1ccc(-c2n[nH]c(=O)c3ccccc23)cc1,102,-30,.,.
FC(F)(F)c1cc(-c2cccc3ccccc23)n[nH]1,107,-2,32,23
COCCCNC(=O)c1cc(-c2ccc(OC)cc2)nc2n[nH]c(-c3ccc(Cl)cc3)c12,96,.,79,88
COc1cc(OC)cc(-c2nc(N)n[nH]2)c1,103,4,100,98
O=C(CCCc1nc(-c2ccc(Cl)cc2)no1)Nc1nn[nH]n1,105,-6,.,.
O=C(O)/C=C/c1c[nH]c(=O)[nH]c1=O,95,-33,101,108
Cc1ccc(C(C)C)c(OCC(=O)Nc2cc(-c3nc4ccccc4[nH]3)ccc2C)c1,107,5,119,86
C=CCn1c(=S)[nH]c2sc3c(c2c1=O)CCCC3,.,-14,60,25
Nc1ccc2nc(-c3ccccc3-c3nc4ccc(N)cc4[nH]3)[nH]c2c1,104,.,91,99
Cc1ccc(CNC(=O)c2cc(=O)[nH]c3ccccc23)n1C,.,-14,106,83
Cc1cc(=O)n2[nH]cc(-c3ccccc3)c2n1,101,-24,66,44
c1ccc(C2=Nc3ccccc3SC2c2nc3ccccc3[nH]2)cc1 (stereo unspecified),110,.,85,73
CN1CCc2c(sc3[nH]c(=S)n(CCc4ccccc4)c(=O)c23)C1,102,-9,.,.
Cc1ccc(-c2[nH]c3ccccc3c2SCCNC(=O)c2ccncc2)cc1,103,.,93,53

# Compounds as they come, and some 0.83% of all compounds hit somewhere here.
